BJeLR lethal: MLPCN primary cell-based screen for lethality selective to Ras in HRASV12 cells | inhibition, % (concentration not given with the values) | BJeLR (HRASV12) viability, CellTiter-Glo ATP luminescence, 48 h; reference of the scale not given here | 300,000 compounds, 0.17% hits;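 active means replicate mean above 50%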;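 further: 50 nL library stock added to about 25 µL; numbers are from one replicate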
ugtP null kill: growth inhibition of ugtP-null S. aureus, primary screen, RN4220 ugtP deletion, OD600. 16 h; some inactives read as strong as hits. growth inhibition, % (test concentration not listed). 330,000 compounds, 0.54% hits. AID 1259309, 2017;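 active means z-score under -3 and OD600 up to 0.15 on both plates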;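 further: plate controls were untreated wells for no effect and antibiotic for full effect; wells of about 80 µL received 100 nL stock; the first replicate is given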
Mtb hypoxia rep: PubChem AID 1159583; 300,000 compounds, 0.1% hits; M. tuberculosis hypoxia-regulated fluorescent reporter, fluorescence; fluorescence inhibition, % (no concentration beside the values);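 active means 35 to 45% if threefold the growth effect, above 45% if 1.5-fold the growth effect; inactive means the rest, general growth blockers included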;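 further: wells of about 50 µL received 100 nL stock; 0% = vehicle wells and 100% = reference inhibitor wells; whole bacteria with a GFP reporter of the hypoxia response; strong numbers were not always called active; many hits fall short of the cut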
Sa RN4220 lethal: growth inhibition of S. aureus RN4220, primary screen, OD600. 16 h. inhibition, % (no concentration beside the values). 330,000 compounds, 0.33% hits;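 active means z-score of -3 or lower and OD600 up to 0.18 on both plates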;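 further: plate controls were untreated cells for no effect and reference antibiotic for full effect; stock transfer was 100 nL into about 80 µL; one replicate is shown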
PrP 5UTR inh: inhibition of PrP 5' UTR reporter expression. AID 488862, 2010. inhibition, % (concentration not given with the values). cell-based PrP 5' UTR mRNA reporter, plate reader. 340,000 compounds, 0.35% hits;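 active means every replicate at 50% or more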;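 further: 0 = median of the neutral control wells; tested in H4 reporter cells; numbers are from one replicate; inactives centre near -14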
Autofluor counter: compound fluorescence in toxin protease inhibitor counterscreen | compound autofluorescence counterscreen, microsphere flow cytometry; stronger effect = higher value | fluorescence intensity (test concentration not listed) | 360,000 compounds, 3.1% hits;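 active means at least 3 SD above the mean of all compounds, about 16000 in these data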;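 further: 100 nL of 1 mM stock went into each well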
Mtb hypoxia rep growth: recorded beside Mtb hypoxia rep, whose call it bears; growth inhibition, %; measured here: M. tuberculosis growth (absorbance);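 0% = vehicle and 100% = reference antibiotic; read after six days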
* marks the source's active call; other numbers are inactive results.

Results for CCOc1ccc(NC(=O)CSc2n[nH]c(=O)n2-c2ccccc2)cc1 ?
BJeLR lethal: 7; ugtP null kill: 9; Mtb hypoxia rep: 1; Sa RN4220 lethal: 3.3; PrP 5UTR inh: -15; Autofluor counter: 11025; Mtb hypoxia rep growth: 2

How did COc1ccc(NS(=O)(=O)c2cccc(C(=O)O)c2)cc1 do in these assays?
BJeLR lethal: 1; ugtP null kill: 5; Mtb hypoxia rep: 6; Sa RN4220 lethal: 2.7; PrP 5UTR inh: -11; Autofluor counter: 8070; Mtb hypoxia rep growth: 3

How did COc1ccc(NC(C)=O)cc1NC(=O)CN1CCN(CC(=O)Nc2ccc(Cl)cc2)CC1 do in these assays?
BJeLR lethal: 5; ugtP null kill: -4; Sa RN4220 lethal: -0.8; PrP 5UTR inh: -22; Autofluor counter: 2739

How did NS(=O)(=O)c1ccc(CNC(=O)c2ccc(S(=O)(=O)NCc3ccco3)cc2)cc1 do in these assays?
ugtP null kill: 7; Mtb hypoxia rep: -6; Sa RN4220 lethal: 4.3; PrP 5UTR inh: -13; Autofluor counter: 4875; Mtb hypoxia rep growth: -3

Results for CCOc1ccc(N2C(=O)CC(N(Cc3ccco3)C(=O)CC)C2=O)cc1 (configuration not stated) ?
BJeLR lethal: 10; ugtP null kill: 11; Mtb hypoxia rep: -1; Sa RN4220 lethal: 1.1; PrP 5UTR inh: -35; Autofluor counter: 2620; Mtb hypoxia rep growth: 8

Results for O=C(Nc1ccc(OC(F)F)c(Cl)c1)Nc1ccc2c(c1)OCO2 ?
BJeLR lethal: -12; ugtP null kill: -41; Mtb hypoxia rep: -11; Sa RN4220 lethal: -4.4; PrP 5UTR inh: -51; Autofluor counter: 9919; Mtb hypoxia rep growth: 9

Results for CS(=O)(=O)N(CC(=O)Nc1ccccc1Sc1ccccc1)c1ccc(F)cc1 ?
BJeLR lethal: 6; ugtP null kill: -5; Mtb hypoxia rep: 9; Sa RN4220 lethal: 1.0; PrP 5UTR inh: -1; Autofluor counter: 2513; Mtb hypoxia rep growth: 12

How did CCOC(=O)c1sc2ncn(CC(=O)Nc3cc(C)on3)c(=O)c2c1C do in these assays?
ugtP null kill: -2; Mtb hypoxia rep: 7; Sa RN4220 lethal: -0.3; PrP 5UTR inh: -31; Autofluor counter: 3892; Mtb hypoxia rep growth: 3

Results for COc1cc(/C=N/NC(=O)C(=O)N2CCCCCC2)ccc1O ?
BJeLR lethal: -1; PrP 5UTR inh: -6; Autofluor counter: 6088

How did O=C(NCCc1c[nH]c2ccccc12)C(=O)NCC(c1ccco1)N1CCN(c2ccccc2)CC1 (configuration not stated) do in these assays?
BJeLR lethal: -4; ugtP null kill: 10; Mtb hypoxia rep: 7; Sa RN4220 lethal: -1.0; PrP 5UTR inh: 5; Autofluor counter: 2246; Mtb hypoxia rep growth: 3

Results for OC1(CC#CCN2CCCCC2)c2ccccc2-c2ccccc21 ?
BJeLR lethal: 6; ugtP null kill: 7; Mtb hypoxia rep: 8; Sa RN4220 lethal: 3.9; PrP 5UTR inh: -8; Autofluor counter: 5321; Mtb hypoxia rep growth: 0

Results for Cc1cccc(OCC(=O)NC2CCCc3ccccc32)c1C (configuration not stated) ?
BJeLR lethal: -18; ugtP null kill: 3; Mtb hypoxia rep: -4; Sa RN4220 lethal: 5.2; PrP 5UTR inh: 4; Autofluor counter: 2241; Mtb hypoxia rep growth: -3

What do the screens show for `Cc1cc2c(nn1)CCc1c-2no[n+]1[O-]`?
BJeLR lethal: -3; ugtP null kill: -2; Mtb hypoxia rep: 8; Sa RN4220 lethal: 1.0; PrP 5UTR inh: -7; Mtb hypoxia rep growth: 8

What do the screens show for `CC1(C)CC(=O)C2=C(C1)Nc1nc(SCCN3CCOCC3)[nH]c(=O)c1C2c1cccs1` (configuration not stated)?
BJeLR lethal: -6; ugtP null kill: -5; Sa RN4220 lethal: -0.8; PrP 5UTR inh: -13; Autofluor counter: 4622

How did CCC(=O)NCCc1nc2cc(NC(=O)c3ccc(Cl)cc3)ccc2n1C do in these assays?
BJeLR lethal: 2; ugtP null kill: 9; Mtb hypoxia rep: 1; Sa RN4220 lethal: 2.5; PrP 5UTR inh: -54; Autofluor counter: 2930; Mtb hypoxia rep growth: 1

Results for CCc1sc(N(C(=O)Cc2ccccc2)c2ccc(F)cc2)nc1-c1ccccc1 ?
BJeLR lethal: 2; ugtP null kill: 53; Mtb hypoxia rep: 4; Sa RN4220 lethal: -11; PrP 5UTR inh: -23; Autofluor counter: 2284; Mtb hypoxia rep growth: 11

How did CCCCOC(=O)Nc1nc2ccccc2s1 do in these assays?
BJeLR lethal: 8; ugtP null kill: -1; Sa RN4220 lethal: 3.3; PrP 5UTR inh: -61; Autofluor counter: 2446

How did CCOc1ccccc1NC(=O)c1ccc2c(c1)C(=O)N(CC)C2=O do in these assays?
BJeLR lethal: -4; ugtP null kill: 7; Mtb hypoxia rep: -2; Sa RN4220 lethal: 0.9; PrP 5UTR inh: -10; Autofluor counter: 3013; Mtb hypoxia rep growth: -7

What do the screens show for `Cc1nn(CC(=O)NCCN2CCOCC2)c(C)c1[N+](=O)[O-]`?
BJeLR lethal: -2; ugtP null kill: 4; Mtb hypoxia rep: 8; Sa RN4220 lethal: 1.0; PrP 5UTR inh: -4; Autofluor counter: 3314; Mtb hypoxia rep growth: 8

What do the screens show for `CC(=O)c1sc(NC(=O)c2ccccc2F)nc1-c1ccccc1`?
BJeLR lethal: -10; ugtP null kill: 14; Mtb hypoxia rep: 12; Sa RN4220 lethal: 8.3; PrP 5UTR inh: -145; Autofluor counter: 3311; Mtb hypoxia rep growth: 10

Results for COc1ccc2[nH]c3c(c2c1)CCN1C(=O)C(CC(=O)NCc2ccc(OC)c(OC)c2)C[C@H](C(=O)N2CCCCC2)[C@@]31CCc1ccccc1 (some centres not stated) ?
ugtP null kill: 3; Mtb hypoxia rep: -14; Sa RN4220 lethal: 3.4; PrP 5UTR inh: 2; Autofluor counter: 3478; Mtb hypoxia rep growth: 2

What do the screens show for `Cc1cc(NS(=O)(=O)c2ccc(NC(=S)NC(=O)c3ccccc3)cc2)no1`?
BJeLR lethal: -6; ugtP null kill: 42; Mtb hypoxia rep: 25; Sa RN4220 lethal: 16; PrP 5UTR inh: -10; Autofluor counter: 2122; Mtb hypoxia rep growth: 18

What do the screens show for `CC(Sc1nnc(C2CC2)n1-c1ccccc1)C(=O)N1CCCC1` (configuration not stated)?
ugtP null kill: -4; Mtb hypoxia rep: -6; Sa RN4220 lethal: -1.2; PrP 5UTR inh: -29; Autofluor counter: 6158; Mtb hypoxia rep growth: -1

What do the screens show for `Cc1cc2oc(=O)cc(CN3CCCCC3C)c2c(C)c1Cl` (configuration not stated)?
BJeLR lethal: -2; ugtP null kill: -3; Mtb hypoxia rep: 7; Sa RN4220 lethal: 7.0; PrP 5UTR inh: -24; Autofluor counter: 9159; Mtb hypoxia rep growth: 14

Results for NC1=NCC(c2ccccc2)N1CCCCC1CCCCC1 (configuration not stated) ?
ugtP null kill: -11; Mtb hypoxia rep: 4; Sa RN4220 lethal: -16; Mtb hypoxia rep growth: 16

How did COc1ccc(S(=O)(=O)n2cnc3cc(C)c(C)cc32)cc1C do in these assays?
BJeLR lethal: 2; ugtP null kill: -1; Mtb hypoxia rep: -1; Sa RN4220 lethal: 4.4; PrP 5UTR inh: -6; Autofluor counter: 10741; Mtb hypoxia rep growth: 5

How did Cc1[nH]n(-c2ccccc2)c(=O)c1C=NNC(=O)c1ccc(O)cc1O do in these assays?
ugtP null kill: 14; Mtb hypoxia rep: 1; Sa RN4220 lethal: 2.0; Mtb hypoxia rep growth: 3

How did COC(=O)C1=C(C(=O)OC)C2N(C)c3ccccc3[C@@]23CC(C(=O)OC)N(C(=O)c2ccc(Br)cc2)C3=N1 (some centres not stated) do in these assays?
ugtP null kill: -4; Mtb hypoxia rep: 2; Sa RN4220 lethal: -0.7; Mtb hypoxia rep growth: -1

How did CC(C)c1ccc(C2CC(=O)N3CN(C)CSC3=C2C#N)cc1 (configuration not stated) do in these assays?
BJeLR lethal: -5; PrP 5UTR inh: -2; Autofluor counter: 4384

Results for CCOC(=O)CSC1=NC(=O)/C(=C/c2ccc(OC)cc2)S1 ?
BJeLR lethal: 3; ugtP null kill: 4; Mtb hypoxia rep: 9; Sa RN4220 lethal: -0.9; PrP 5UTR inh: -41; Autofluor counter: 2135; Mtb hypoxia rep growth: 10

How did c1ccc(-c2nc3ccccn3c2NCc2ccc3c(c2)OCO3)cc1 do in these assays?
BJeLR lethal: -1; ugtP null kill: -8; Mtb hypoxia rep: 4; Sa RN4220 lethal: -0.9; PrP 5UTR inh: -15; Autofluor counter: 4270; Mtb hypoxia rep growth: 6

What do the screens show for `COc1ccccc1OCc1nnc(SCC(=O)Nc2ccc(C)cc2)n1C`?
BJeLR lethal: -4; ugtP null kill: 3; Mtb hypoxia rep: 3; Sa RN4220 lethal: 5.5; PrP 5UTR inh: -15; Autofluor counter: 2770; Mtb hypoxia rep growth: 4

What do the screens show for `Cc1ccc2nc3c(cc(C#N)c(=O)n3CC3CCCO3)c(=O)n2c1` (configuration not stated)?
ugtP null kill: -11; Mtb hypoxia rep: 0; Sa RN4220 lethal: 2.3; Mtb hypoxia rep growth: 6

Results for CC(C)C(=O)Nc1ccc2c3c(cccc13)CC2 ?
BJeLR lethal: -7; PrP 5UTR inh: -12; Autofluor counter: 9597

Results for Cc1ccc2oc(-c3cccc(N)c3)nc2c1 ?
BJeLR lethal: -6; ugtP null kill: 6; Mtb hypoxia rep: 19; Sa RN4220 lethal: 8.4; PrP 5UTR inh: -37; Autofluor counter: 2221; Mtb hypoxia rep growth: 1

Results for CCOC(=O)c1nnn(-c2nonc2N)c1-c1ccc(F)cc1 ?
BJeLR lethal: -11; PrP 5UTR inh: -10; Autofluor counter: 4472

Results for Cc1cc2oc(C(=O)Nc3ccc(S(N)(=O)=O)cc3)c(C)c2cc1Cl ?
BJeLR lethal: 6; ugtP null kill: 6; Mtb hypoxia rep: 1; Sa RN4220 lethal: -3.5; PrP 5UTR inh: -11; Autofluor counter: 4351; Mtb hypoxia rep growth: 4

What do the screens show for `COc1cc(C(=O)NC(=S)Nc2ccc(Cl)c(C(=O)O)c2)cc(OC)c1OC`?
BJeLR lethal: 2; ugtP null kill: -1; Mtb hypoxia rep: 12; Sa RN4220 lethal: 6.8; PrP 5UTR inh: -8; Autofluor counter: 3734; Mtb hypoxia rep growth: 6

Results for CCCSc1nsc(NC(=O)C(c2ccccc2)c2ccccc2)n1 ?
BJeLR lethal: 2; ugtP null kill: 52; Mtb hypoxia rep: 6; Sa RN4220 lethal: -1.8; PrP 5UTR inh: -14; Autofluor counter: 2581; Mtb hypoxia rep growth: 15

How did COc1ccc(NC(=O)c2cc3cc(OC)ccc3oc2=N)cc1 do in these assays?
BJeLR lethal: -3; ugtP null kill: -10; Mtb hypoxia rep: 4; Sa RN4220 lethal: 7.7; PrP 5UTR inh: -29; Autofluor counter: 6217; Mtb hypoxia rep growth: 6

What do the screens show for `CC(=O)[C@@H]1[C@@H](C(=O)c2ccccc2)[C@]2(C(=O)Nc3ccccc32)[C@H]2C=Cc3cc(F)ccc3N12`?
BJeLR lethal: 18; ugtP null kill: -6; Mtb hypoxia rep: -1; Sa RN4220 lethal: 8.5; PrP 5UTR inh: -18; Autofluor counter: 3170; Mtb hypoxia rep growth: 13

What do the screens show for `CCNS(=O)(=O)c1ccc(NC(=O)c2ccccc2)cc1`?
BJeLR lethal: -12; ugtP null kill: -5; Mtb hypoxia rep: -3; Sa RN4220 lethal: -1.1; PrP 5UTR inh: 0; Autofluor counter: 7873; Mtb hypoxia rep growth: 12

A run of entries of the results above, for reference:
Results for CCOC(=O)c1nnn(-c2nonc2N)c1-c1ccc(F)cc1 ?
BJeLR lethal: -11; PrP 5UTR inh: -10; Autofluor counter: 4472

Results for Cc1cc2oc(C(=O)Nc3ccc(S(N)(=O)=O)cc3)c(C)c2cc1Cl ?
BJeLR lethal: 6; ugtP null kill: 6; Mtb hypoxia rep: 1; Sa RN4220 lethal: -3.5; PrP 5UTR inh: -11; Autofluor counter: 4351; Mtb hypoxia rep growth: 4

What do the screens show for `COc1cc(C(=O)NC(=S)Nc2ccc(Cl)c(C(=O)O)c2)cc(OC)c1OC`?
BJeLR lethal: 2; ugtP null kill: -1; Mtb hypoxia rep: 12; Sa RN4220 lethal: 6.8; PrP 5UTR inh: -8; Autofluor counter: 3734; Mtb hypoxia rep growth: 6

Compound activity from PubChem BioAssay.
